Beta2AR agonist: agonists of human beta-2 adrenergic receptor inducing internalization. Am2.2-beta2AR cells, FAP receptor internalization, flow cytometry; reference of the scale not given here. response, % (no concentration beside the values). 340,000 compounds, 0.43% hits. AID 504454;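 active = response above a set limit, near 3 SD of response in nonfluorescent compounds, cut at about 42% in these data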;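 note: stock transfer was 100 nL into about 11 µL; a reference agonist was the positive control; negative values mostly stem from fluorescent compounds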
Target sequence (P07550 whole entry, looked up): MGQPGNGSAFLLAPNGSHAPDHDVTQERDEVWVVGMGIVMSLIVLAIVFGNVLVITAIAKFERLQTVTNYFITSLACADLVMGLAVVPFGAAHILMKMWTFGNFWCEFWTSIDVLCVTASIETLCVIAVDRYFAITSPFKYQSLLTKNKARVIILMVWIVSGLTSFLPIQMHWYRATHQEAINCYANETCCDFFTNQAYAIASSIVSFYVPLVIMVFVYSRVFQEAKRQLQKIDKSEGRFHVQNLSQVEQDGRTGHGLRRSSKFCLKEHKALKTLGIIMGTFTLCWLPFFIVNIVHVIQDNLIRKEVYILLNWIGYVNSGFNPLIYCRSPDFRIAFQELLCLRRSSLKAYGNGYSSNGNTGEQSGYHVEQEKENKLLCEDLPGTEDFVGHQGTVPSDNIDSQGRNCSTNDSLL
UCH37 DUB inh: inhibitors of human deubiquitinating enzyme UCH37; Q9Y5K5; purified proteasome/UCH37, Ub-AMC cleavage fluorescence; inhibition, % (no concentration beside the values); 330,000 compounds, 0.33% hits; AID 588478;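 active = mean of two replicates above 20%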;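 note: 0% = compound-free wells with enzyme and 100% = wells lacking proteasome; stock transfer was 100 nL into about 20 µL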
Target sequence (Q9Y5K5 whole entry, looked up): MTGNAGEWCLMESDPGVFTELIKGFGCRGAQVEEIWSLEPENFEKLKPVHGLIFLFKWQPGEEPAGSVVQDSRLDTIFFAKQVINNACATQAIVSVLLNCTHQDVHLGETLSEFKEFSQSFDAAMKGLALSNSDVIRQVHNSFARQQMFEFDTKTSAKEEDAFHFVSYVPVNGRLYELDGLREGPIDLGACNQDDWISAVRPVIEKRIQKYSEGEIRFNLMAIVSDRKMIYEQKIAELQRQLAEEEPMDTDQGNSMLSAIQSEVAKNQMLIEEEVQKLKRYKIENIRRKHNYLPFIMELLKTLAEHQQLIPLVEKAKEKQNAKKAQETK
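system = Proteasome-associated human UCH37 deubiquitinase | amount = 0.15 nM proteasome as dispensed | medium = pH 7.4 Tris-HCl (50 mM) with ovalbumin, ATP-MgCl2, DTT | incubation = 30 min preincubation with enzyme, 25 min cleavage at room temperature | detection = AMC fluorescence 355/460 nm | read-out basis = percent inhibition | controls = no-proteasome and no-compound wells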
* = called active by the depositor. The list is partial; count on the stated rates, not on these rows.

SMILES | Beta2AR agonist | UCH37 DUB inh
CCOC(=O)C1=CN(Cc2cccc(Br)c2)S(=O)(=O)N(C)C1C (stereo not given) | -7 | 1.2
Nc1ccc(S(=O)(=O)NN=CC=Cc2ccccc2[N+](=O)[O-])cc1 | -2 | 7.6
CN(Cc1ccccc1F)C(=O)c1ccc(NC(=O)CC2SC(N3CCCCC3)=NC2=O)cc1 (stereo not given) | 4 | 2.3
CCOC(=O)C1=C(COC(=O)CCCOc2ccccc2)NC(=O)NC1C (stereo not given) | -1 | 1.5
COc1ccc2[nH]c3c(c2c1)CCN1C(=O)C(CC(=O)NCc2ccc(OC)c(OC)c2)C[C@H](C(=O)N2CCOCC2)[C@@]31C (stereo not given in full) | -3 | -1.2
Cc1cc(OCC(=O)OCC(=O)N2c3ccccc3NC(=O)C2(C)C)ccc1Cl | 1 | -1.1
C[C@]12c3[nH]c4cc(-c5ccco5)ccc4c3CCN1C(=O)[C@@H](CC(=O)NCCCn1ccnc1)C[C@@H]2C(=O)N1CCCCC1 | -10 | -18
N#C/C(=C/c1ccc(-c2cccc([N+](=O)[O-])c2)o1)C(=O)Nc1nc(-c2cccs2)cs1 | 9 | 11
COc1ccc(CC(=O)NCc2nnc(SCC(=O)N3CCN(c4ccccc4)CC3)n2C)cc1 | -2 | 1.1
Cc1ccccc1-n1c(SC(C)C(=O)NCC2CCCO2)nnc1-c1ccncc1 (stereo not given) | -4 | -1.0
ClCC(CNCc1ccccc1)c1ccccc1 (stereo not given) | 8 | 1.2
CC(=O)c1c(C)[nH]c(C(=O)CN2CCN(S(=O)(=O)c3ccc(C(C)C)cc3)CC2)c1C | -7 | 1.0
COCC(=O)N(C)C[C@H]1N[C@@](C)(C(=O)OC)[C@H]2C(=O)N(C)C(=O)[C@@H]12 | 3 | 0.8
CC(C)N(C(=O)[C@H]1C[C@H](CC(=O)NCCC2=CCCCC2)C(=O)N2CCc3c([nH]c4ccc(Cl)cc34)[C@]12C)C(C)C | 10 | 2.0
O=C(CCC(=O)c1cccs1)OCC(=O)c1ccccc1F | -3 | 4.9
CCN(CC)C(=O)[C@H]1C[C@H](CC(=O)NCc2ccco2)C(=O)N2CCc3c([nH]c4cc(-c5ccco5)ccc34)[C@]12C | -3 | -15
NC(=O)CSc1ccc(S(=O)(=O)N2CCOCC2)cn1 | 7 | -1.5
Cc1ccc(CSCC(=O)Nc2cc(S(=O)(=O)N3CCOCC3)ccc2OCC(F)(F)F)cc1 | 4 | 0.4
CCCN1C(C)C(C(=O)OCC)=CN(Cc2ccc(Br)cc2)S1(=O)=O (stereo not given) | 23 | -0.5
Cc1ccc(OCCCC(=O)Nc2cc(S(=O)(=O)N3CCOCC3)ccc2N2CCOCC2)cc1 | -1 | -0.1
CCN1C[C@@H]2[C@@H]3C(=O)N(C)C(=O)[C@@H]3[C@](CC)(C(=O)OC)N2C1=NC | -10 | 1.1
CC1CN(CC(O)c2ccc(Br)cc2)CCO1 (stereo not given) | -7 | 1.6
Cc1ccc(C)c(N2CCN(C(=O)CCc3nc(-c4ccccc4Br)no3)CC2)c1 | 3 | -2.7
C1CN(CC2COC(CN3CCOCC3)CO2)CCO1 (stereo not given) | -6 | 1.9
Cc1ccccc1OCCC(=O)N1CCN(S(=O)(=O)c2ccc(Br)cc2)CC1 | 2 | 3.0
SMILES | Beta2AR agonist | UCH37 DUB inh
Cc1ccccc1NS(=O)(=O)c1ccc(C(=O)NCC2(N3CCOCC3)CCCCC2)cc1 | 16 | -1.2
Cn1nc(C(=O)NCc2ccc(F)cc2)cc1C(=O)NCc1ccc(F)cc1 | 6 | 4.0
CC(=O)Nc1ccc(Cl)cc1-c1ccccc1 | 2 | 2.3
Cc1ccc(S(=O)(=O)N2CCCCC2)cc1NC(=O)c1cncc(Br)c1 | -1 | 0.8
COc1ccc2c(c1)C(=O)C1NC(=O)NC(=O)C1(Br)N2 (stereo not given) | -6 | 2.1
COc1ccc(Cn2c(=O)sc3ccccc3c2=O)cc1 | -7 | 4.3
Cc1ccc(CONC(=O)c2ccccc2Cl)cc1 | 0 | 0.5
COC(=O)[C@H](C(C)C)N(Cc1ccccc1)S(=O)(=O)CCN1CCN(c2ccccc2)CC1 | 2 | 3.4
O=C1[C@@H](c2ccccc2)[C@@H](c2ccccc2)N1c1cccnc1 | 19 | -1.5
CCc1cccc2c1NC(=O)C2=O | 1 | 3.0
CCN(Cc1nc2ccccc2c(=O)[nH]1)C(=O)c1cccc(NC(=O)c2cccs2)c1 | -7 | 2.1
COc1ccc(CCNC(=O)c2cccc(S(=O)(=O)N3CCCC3)c2)cc1 | 1 | 0.4
COc1cc(C(C(=O)NC(C)(C)C)N(C(=O)CNC(=O)c2cccs2)c2ccc(C(C)C)cc2)cc(OC)c1OC (stereo not given) | -24 | 0.5
O=c1[nH]c(=O)c2[nH]c(=S)[nH]c2[nH]1 | -2 | -9.7
CC1CC(C)CN(S(=O)(=O)c2ccc(NC(=O)CCN3C(=O)C4CC=CCC4C3=O)cc2)C1 (stereo not given) | 5 | -0.6
CCN(C(=O)CSc1nc2ccc([N+](=O)[O-])cc2s1)c1c(N)n(Cc2ccccc2)c(=O)[nH]c1=O | 5 | 3.6
CN(CC(=O)NCc1ccco1)CC(=O)Nc1cc(S(C)(=O)=O)ccc1Cl | 0 | 4.9
CCCN1CCN(CC(=O)NCC(=O)Nc2cccc(C)c2C)CC1 | -10 | -0.4
CC(NCC(=O)Nc1ccccc1C(=O)NC1CC1)c1ccco1 (stereo not given) | 0 | 2.2
O=C(CNc1cc(S(=O)(=O)N2CCOCC2)ccc1N1CCCC1)Nc1ccc(Cl)cc1 | -2 | -2.6
Cc1ccc(S(=O)(=O)N2CCCCC2)cc1NC(=O)Cn1cnc2c1c(=O)n(C)c(=O)n2C | 1 | 2.1
O=C1CC2(CCCCC2)CC(=O)N1CCc1ccccc1 | -5 | 1.6
CN(CC(=O)Nc1ccc(F)cc1)C(=O)c1ccc2ccccc2n1 | -10 | -0.1
CCNC1CCC(Nc2ccnc3cc(Cl)ccc23)CC1 (stereo not given) | 7 | 9.8
CCOC(=O)c1ccccc1NC(=O)Cn1cnc2c(cnn2-c2ccc(F)cc2)c1=O | 1 | -4.4
SMILES | Beta2AR agonist | UCH37 DUB inh
O=C(O)c1ccc(NN=CC2=C(N3CCOCC3)/C(=C/c3ccccc3)CC2)cc1 | -27 | 0.1
CCOC(=O)c1ccc(N[C@@H]2CCN3C(=O)c4ccccc4[C@@H]3C[C@H]2O)cc1 | 1 | -0.2
O=[N+]([O-])c1cccc(C=NNc2ccccc2)c1 | 3 | 2.3
O=S(=O)(N[C@H](CO)Cc1ccccc1)c1ccc(Br)cc1F | 3 | -0.7
O=C(O)[C@H]1CC=C[C@H]2CCN(Cc3ccc(Cl)c(Cl)c3)C(=O)[C@@H]12 | 5 | -0.5
c1ccc2cc(N3CCCCC3)ccc2c1 | -4 | -28
CCOC(=O)C1=C(c2ccccc2)c2ccccc2OC1C(=O)OCC (stereo not given) | 4 | 4.6
CC(=O)c1ccc(OCCCC(=O)OCC(=O)N2CCN(S(=O)(=O)c3ccc(C)cc3C)CC2)cc1 | 10 | -1.8
CCOc1ccccc1OCC(=O)Nc1ccc(N2CCOCC2)cc1N1CCOCC1 | -2 | 4.1
Cc1cc2oc(=O)cc(-c3ccccc3)c2c(C)c1-c1ccc(CO)cc1 | 6 | 6.8
Cc1ccc(NC(=O)CCN2C(=O)NC3(CCCC3)C2=O)c(C)c1 | -12 | 3.5
CC(NC(=O)CNC(=O)c1ccccc1Br)c1cccs1 (stereo not given) | -1 | 2.8
CCn1c(=O)c(C(=O)Nc2cccnc2)c(O)c2ccccc21 | -39 | -0.6
COc1ccc(C2/C=C\CN(C(=O)OCC3c4ccccc4-c4ccccc43)CC(=O)N2Cc2cccc(F)c2)cc1 (stereo not given) | 0 | 0.2
CCOc1ccccc1NC(=O)CC1(CC(=O)N2CCOCC2)CCCC1 | -2 | 5.8
Oc1cccc2oc(=S)[nH]c12 | -2 | 2.9
CCOC(=O)C1=CN(Cc2ccco2)S(=O)(=O)N(CC)C1c1ccccc1 (stereo not given) | -1 | 0.1
COc1ccc(C(CNC(=O)c2ccc(S(=O)(=O)Nc3cccc(C)c3C)cc2)N2CCOCC2)cc1 (stereo not given) | 8 | 0.8
O=C(Cn1cnc2c(NCc3ccccc3)ncnc21)NCCCN1CCCC1=O | -7 | -0.4
CC(O)(c1ccccc1)C(C(c1ccccc1)N1CCOCC1)N1CCOCC1 (stereo not given) | 2 | 2.7
CCC(C)Sc1ccc(-c2nc3cc(C)ccn3c2NC2CCCCC2)cc1 (stereo not given) | 29 | -208
COc1cccc(NC(=O)CN(C)C(=O)c2ccc3[nH]c4c(c3c2)CC(C)CC4)c1 (stereo not given) | 0 | 4.2
CC(C)=CCC/C(C)=C/CNC(=O)C[C@H]1C[C@H](C(=O)N2CCCCC2)[C@@]2(CCc3ccccc3)c3[nH]c4ccc(Cl)cc4c3CCN2C1=O | 1 | -0.3
COc1ccc(CCNC(=O)c2ccc(NC(=O)CC3SC(N4CCCC4)=NC3=O)cc2)cc1OC (stereo not given) | -3 | -0.5
CCC(=NOCc1ccccc1)C(=O)NNS(=O)(=O)c1ccc(C)cc1 | -4 | 3.0

Some of the entries so far, with the structure last:
| Beta2AR agonist | UCH37 DUB inh | structure |
| --- | --- | --- |
| -27 | 0.1 | O=C(O)c1ccc(NN=CC2=C(N3CCOCC3)/C(=C/c3ccccc3)CC2)cc1 |
| 1 | -0.2 | CCOC(=O)c1ccc(N[C@@H]2CCN3C(=O)c4ccccc4[C@@H]3C[C@H]2O)cc1 |
| 3 | 2.3 | O=[N+]([O-])c1cccc(C=NNc2ccccc2)c1 |
| 3 | -0.7 | O=S(=O)(N[C@H](CO)Cc1ccccc1)c1ccc(Br)cc1F |
| 5 | -0.5 | O=C(O)[C@H]1CC=C[C@H]2CCN(Cc3ccc(Cl)c(Cl)c3)C(=O)[C@@H]12 |
| -4 | -28 | c1ccc2cc(N3CCCCC3)ccc2c1 |
| 4 | 4.6 | CCOC(=O)C1=C(c2ccccc2)c2ccccc2OC1C(=O)OCC (stereo not given) |
| 10 | -1.8 | CC(=O)c1ccc(OCCCC(=O)OCC(=O)N2CCN(S(=O)(=O)c3ccc(C)cc3C)CC2)cc1 |
| -2 | 4.1 | CCOc1ccccc1OCC(=O)Nc1ccc(N2CCOCC2)cc1N1CCOCC1 |
| 6 | 6.8 | Cc1cc2oc(=O)cc(-c3ccccc3)c2c(C)c1-c1ccc(CO)cc1 |
| -12 | 3.5 | Cc1ccc(NC(=O)CCN2C(=O)NC3(CCCC3)C2=O)c(C)c1 |
| -1 | 2.8 | CC(NC(=O)CNC(=O)c1ccccc1Br)c1cccs1 (stereo not given) |
| -39 | -0.6 | CCn1c(=O)c(C(=O)Nc2cccnc2)c(O)c2ccccc21 |
| 0 | 0.2 | COc1ccc(C2/C=C\CN(C(=O)OCC3c4ccccc4-c4ccccc43)CC(=O)N2Cc2cccc(F)c2)cc1 (stereo not given) |
| -2 | 5.8 | CCOc1ccccc1NC(=O)CC1(CC(=O)N2CCOCC2)CCCC1 |
| -2 | 2.9 | Oc1cccc2oc(=S)[nH]c12 |

(more compounds)
SMILES | Beta2AR agonist | UCH37 DUB inh
CN(C(=O)c1cccc(NC(=O)Cc2ccc(NC(=O)C3CCN(C(=O)CCc4ccccc4)CC3)cc2)c1)C1CCC1 | 1 | 5.0
CN(Cc1ccccc1)S(=O)(=O)c1ccccc1Br | -1 | 0.2
Cc1cc(Cc2cc(C)c(O)c(CO)c2)cc(CO)c1O | 1 | 2.3
CN(C)c1ccc(C(=O)C(O)c2ccccc2Cl)cc1 (stereo not given) | 4 | 3.9
C[C@@H]1CC=C[C@@H]2[C@H]1C(=O)N(Cc1ccccc1)[C@H]2c1cccc(C#Cc2ccccc2)c1 | 3 | 4.2
Cc1ccc(S(=O)(=O)N2CCOCC2)cc1C(=O)N1CCN(Cc2ccccc2)CC1 | 6 | 2.5
S=c1cn[nH]c2ccccc12 | 0 | 4.8
COC(=O)c1sccc1NC(=O)/C=C\c1ccc(Cl)cc1Cl | 3 | 1.6
CCN(CC)C(=O)[C@H]1C[C@H](CC(=O)NCCC2=CCCCC2)C(=O)N2CCc3c([nH]c4cc(CCC(=O)N(C)C)ccc34)[C@]12C | -25 | 0.5
COc1ccc2c(COC(=O)[C@@H]3CCCN3S(=O)(=O)c3ccc(Cl)cc3)cc(=O)oc2c1 | 10 | -121
O=C(Cn1c(NCCO)nc2ccccc21)Nc1ccc2c(c1)OCCCO2 | -6 | 0.7
Cc1c(NS(=O)(=O)c2cccc(C(=O)Nc3ccc(SC(F)F)cc3)c2)c(=O)n(-c2ccccc2)n1C | 24 | 1.8
Cc1cc(C)c(C#N)c(SCC(=O)Nc2cccc(S(=O)(=O)N3CCCC3)c2)n1 | 11 | -37
O=C(CCCN1C(=O)NC2(CCCC2)C1=O)Nc1ccc(Cl)c(S(=O)(=O)N2CCOCC2)c1 | -5 | 3.8
Oc1c(Cl)c(Cl)c2ncccc2c1Cl | -8 | 0.9
CCN(Cc1nc2cc(Cl)ccc2c(=O)[nH]1)C(=O)c1cc(C2CC2)nn1-c1ccccc1 | -8 | -1.5
Cc1cc(C)c(C(=O)c2cccs2)c(C)c1 | -7 | 2.1
C=CCC1CCCC(=O)N2CCCC12 (stereo not given) | 9 | 4.3
CCOC(=O)C(C(=O)OCC)C(c1ccccc1)N1CCN(c2ccccc2)CC1 (stereo not given) | 5 | 3.2
CN(Cc1ccccc1)S(=O)(=O)c1ccc(Cl)c(C(=O)NCCCN2CCCC2=O)c1 | 1 | 1.8
COc1ccc(-c2c(C)cc3oc(=O)cc(-c4ccccc4)c3c2C)cc1 | -1 | 1.0
